VACV mCherry inh: inhibitors of vaccinia virus infection (mCherry reporter signal). Vaccinia virus mCherry reporter infection, fluorescence; about a quarter of the inactives have no number. Potency, µM (doses to about 36.5 µM), without a hit: at the top dose activity change, negative = inhibition, hits mostly inhibitors. hit rate 0.63% among 310,000. AID 720579; active = well fitted inhibition curve with a large enough effect; inconclusive = small, poorly fitted or top-dose-only effect; inactive = no such curve, though single readings can be large or run the other way; tested in A549 cells; further: nearly all actives have a fitted effect of over 35% in size; inactives centre near -10
Vaccinia Venus: vaccinia inhibition (Venus reporter); Vaccinia virus Venus reporter expression, fluorescence; AID 720580; Potency, µM (titrated, usually from 36.5 µM), inactives show top-dose activity change, negative = inhibition, hits mostly inhibitors; hit rate 0.46% among 330,000; active means well fitted inhibition curve with a large enough effect; inconclusive means small, poorly fitted or top-dose-only effect; inactive means no such curve, though single readings can be large or run the other way; tested in A549 cells; further: nearly all actives have a fitted effect of over 30% in size; inactives centre near -10
Starred values were filed as active, the others as inactive; i = inactive; ? = inconclusive; nt = not tested or not shown; [ ] = remark or other dose. On the % scale 0 is the no-effect control and ±100 the full control effect; potency means the concentration at half of the fitted maximal effect.

SMILES | VACV mCherry inh | Vaccinia Venus
CSc1nc(SC(C)C(=O)O)c2c3c(sc2n1)COC(C)(C)C3 (stereo unspecified) | -3.3% | -13.5%
COc1ccc(C(=O)NCC2Cc3cc(C)cc(-c4nc5ccccc5s4)c3O2)c(OC)c1OC (stereo unspecified) | i | -9.8%
Cc1ccc(/C=C/C(=O)N2CCN(c3ccc(F)cc3)CC2)o1 | i | -9.7%
COc1ccc(NS(=O)(=O)c2ccc(NC(=S)NC(=O)c3ccc(Br)cc3)cc2)nn1 | -5.9% | -10.9%
CCOC(=O)C1CN(c2cc3c(cc2F)c(=O)c(C(=O)O)cn3CC)OC1C(=O)OCC (stereo unspecified) | nt | -22.2%
Cc1cnc(NC(=O)CSc2ncc(-c3ccccc3)n2Cc2ccco2)s1 | i | -15.9%
CCOC(=O)C1CCCN(C2CC(=O)N(c3ccc(NC(C)=O)cc3)C2=O)C1 (stereo unspecified) | -13.9% | 6.3%
O=C(Cn1cc(COc2ccccc2C(F)(F)F)nn1)c1ccc(O)cc1 | i | -4.7%
COc1ccccc1C(=O)N/C(=C\c1cn(S(=O)(=O)N(C)C)c2ccccc12)C(=O)N1CCN(C)CC1 | -16.4% | -14.9%
CC1CCC(NC(=O)c2cnccn2)CC1 (stereo unspecified) | nt | -18.4%
CC1CC(=O)N(CC(=O)NCc2ccc(F)cc2)c2ccccc2S1(=O)=O (stereo unspecified) | -29.4% | -12.9%
C[C@]12CCC3C(CC[C@H]4[C@H](O)[C@H](O)CC[C@]34C)C1CC[C@@H]2O (stereo partly specified) | -0.7% | -11.2%
O=C(NCc1ccccn1)c1ccc(Cn2c(=S)[nH]c3ccccc3c2=O)cc1 | -2.5% | -27.7%
O=S(=O)(NCCSCc1ccc(Cl)c(Cl)c1)c1ccc2c(c1)OCCO2 | -14.3% | -9.9%
CCOc1ncccc1C(=O)OCC(=O)Nc1nnc(-c2ccccc2)o1 | -23.5% | -6.1%
O=C(O)/C(=C\c1ccc(Cl)c([N+](=O)[O-])c1)c1ccc(S(=O)(=O)N2CCCCC2)s1 | -10.0% | 2.3%
Cc1cc(C)c(NC(=O)CCn2nnc3ccccc32)c(C)c1 | i | -9.1%
CCCn1nc(NC(=O)c2ccncc2)c2cc3ccccc3nc21 | nt | ?
CCOC(=O)[C@@H]1[C@H]2COc3ccccc3[C@H]2N2C(=O)N(c3cccc(Cl)c3)C(=O)[C@@]12C | i | ?
COc1ccc(/C=C(/NC(=O)c2ccccc2)C(=O)N/N=C/c2ccc3c(c2)OCO3)cc1OC | -2.2% | -6.1%
Cc1cccc(OCC(=O)Nc2ccccc2C(=O)OCc2cc(=O)n3nc(C)sc3n2)c1 | -12.2% | -5.9%
COCCN(C(=O)COC(=O)/C=C/c1ccc2c(c1)OCO2)c1c(N)n(Cc2ccccc2)c(=O)[nH]c1=O | -14.1% | -8.4%
CS(=O)(=O)c1ccc(NCCc2ccccn2)c([N+](=O)[O-])c1 | i | -8.3%
Cc1[nH]c2ccccc2c1C(=O)CN1C(=O)NC(C)(c2ccc(Cl)cc2Cl)C1=O (stereo unspecified) | ? | ?
COc1ccc(C)cc1NC(C)C(=O)NC(=O)NC1CCCCC1 (stereo unspecified) | -9.9% | -15.2%
New compounds follow:
SMILES | VACV mCherry inh | Vaccinia Venus
COc1ccc(C2CC(=O)c3c([nH]c(C(=O)OCc4ccccc4)c3C)C2)cc1OC (stereo unspecified) | -18.0% | -8.2%
CCOc1ccc(OCC)c(NC(=O)C2CCN(S(=O)(=O)c3c(C)noc3C)CC2)c1 | -14.8% | -2.0%
Cc1ccc2onc(CC(=O)N3CCN(c4cccc(Cl)c4)CC3)c2c1 | 2.3% | 0.8%
O=C(Nc1nc2c(F)cc(F)cc2s1)c1ccc(S(=O)(=O)N2CCc3ccccc32)cc1 | ? | ?
CC(=O)Nc1c(C)ccc(CNC(=O)COc2cc(C)ccc2C)c1C | i | -1.3%
CC(C)(C)OC(=O)N1CCC(c2c(C(=O)N3CCN(C(=O)c4ccco4)CC3)cnn2-c2cccc(F)c2)CC1 | -10.3% | -1.5%
Cn1c(=O)c2sccc2n2c(CCC(=O)Nc3ccc(F)cc3)nnc12 | -11.8% | -18.6%
CCc1c(C)c2c(C)nn(-c3ccccc3)c2[nH]c1=O | -15.3% | -15.1%
COc1ccc(C)cc1NS(=O)(=O)c1ccc(NC(=O)CN(c2cc([N+](=O)[O-])ccc2C)S(C)(=O)=O)cc1 | -29.9% | ?
CCOC(=O)[C@H]1[C@H]2COc3ccc(Br)cc3[C@@H]2N2C(=O)c3cc(F)c(F)cc3NC(=O)[C@@]12C | -15.3% | ?
CC1=C/C(=C\C=C(C#N)C#N)N(C)c2ccccc21 | i | 118.8%[activator]
Cc1cc2cc3c(cc2nc1SCC(=O)O)OCCO3 | -13.8% | -9.6%
C=C(C)c1ccccc1NC(=O)CCN1C(=O)c2ccccc2S1(=O)=O | -13.7% | 5.0%
CCOC(=O)CN1C(=O)N[C@@H](c2ccccc2)C(C(=O)OC)=C1C | i | -16.4%
CCc1ccc(NCc2cc3cc(OC)c(OC)cc3n(CC(=O)Nc3cc(C)ccc3C)c2=O)cc1 | -18.0% | -18.6%
Cc1ccccc1-c1nc(CN2C(=O)CN=C(c3ccccc3)c3ccccc32)c(C)o1 | -5.1%[7.34 µM] | -10.2%[7.34 µM]
O=c1[nH]c(=O)n(CCc2ccccc2)c(O)c1C=NCCN1CCNCC1 | nt | -15.1%
CCOC(=O)c1ccc(NC(=S)Nc2cc(C)cc(C)n2)cc1 | -11.6% | -2.3%
Cc1cc(C(=O)Nc2ccc(OCc3ccccc3)cc2)c(C)o1 | -21.0% | -9.7%
CCN1c2ccccc2-c2nc(SCC(=O)Nc3cc(OC)cc(OC)c3)ncc2S1(=O)=O | -12.2% | -1.2%
O=C(COC(=O)CCC(=O)c1ccccc1)NNC(=O)c1ccc(Cl)cc1 | -4.6% | -13.8%
CC1CCN(c2cc3c(cc2F)c(=O)c(S(=O)(=O)c2cccc(Cl)c2)cn3Cc2ccccc2)CC1 | i | -9.6%
Cc1ccc(Cc2c(-c3ccc(Br)cc3)nc3cc(C)ccn23)cc1 | -12.9% | -7.9%
CN(C(=O)Cn1cnc([N+](=O)[O-])n1)C1CCCCC1 | i | -10.7%
CCN(CC)C(=O)CSc1nc2c(c(=O)n(C)c(=O)n2C)n1Cc1ccccc1 | 2.3% | -3.4%

Entries of single compounds, quoted from the list. Screens in order: VACV mCherry inh	Vaccinia Venus
COc1ccc(C)cc1NC(C)C(=O)NC(=O)NC1CCCCC1 (stereo unspecified) as listed: -9.9%	-15.2%
Cc1cc(C)c(NC(=O)CCn2nnc3ccccc32)c(C)c1 as listed: i	-9.1%

Next section:
SMILES | VACV mCherry inh | Vaccinia Venus
COc1ccc(NC(=S)NCCCN2CCCC2)cc1 | -3.8% | -6.8%
COc1ccc(/C=C/C(=O)OCCCN(C)C)cc1 | i | -2.5%
O=C(NCC1CCCCC1)c1cccc([N+](=O)[O-])c1 | -17.9% | -3.9%
COc1cc2c(=O)n(Cc3ccccc3)c(=O)n(CC(=O)C(C)(C)C)c2cc1OC | i[7.34 µM] | -16.8%[7.34 µM]
Cc1cccc(NC(=O)Cn2c(=O)n(CC3CCC(C(=O)NCCc4ccccc4)CC3)c(=O)c3ccccc32)c1C (stereo unspecified) | -3.5% | 7.3%
Cc1ccc(CNC(=O)c2ccc(Nc3nc4ccccc4n4nnnc34)cc2)cc1 | ? | ?
NC(c1csc(Nc2ccc(C(=O)NCCCO)cn2)n1)c1ccccc1Cl (stereo unspecified) | -4.5% | -4.7%
CC(=O)Nc1cccc(NC(=O)c2cc(-c3cccnc3)nc3ccc(Cl)cc23)c1 | -10.0% | -6.1%
Cc1cccc(NC(=O)CN2CCN(CC(=O)Nc3ccc(-c4ccccc4)cc3)CC2)c1C | -0.3% | -12.2%
CCc1nc2c(OCC(=O)N3CCOCC3)cccn2c1N(C)C(=O)COc1ccccc1 | 7.0% | -8.5%
COc1ccc(NC(=O)c2ccc(-c3ccccc3)cc2)cc1NS(=O)(=O)c1ccc(F)cc1 | -29.9% | ?
O=c1c2ccccc2ncn1-c1ccc([N+](=O)[O-])c(C(F)(F)F)c1 | i | -16.6%
COc1ccc(OC)c(CNC(=O)c2ccccc2NC(=O)c2nsc3ccccc23)c1 | -11.5% | -14.5%
Cc1ccc(N(CC(=O)N2CCCCC2)S(=O)(=O)c2ccc(C)cc2)cc1 | -4.1% | -4.7%
CC(C)(C)OC(=O)N1CCC[C@H]1c1nnc(SCc2ccc(Cl)cc2)o1 | i | 3.5%
CN(C)CCCO[C@@H]1[C@H]2OC(C)(C)O[C@H]2O[C@@H]1[C@H](O)CO | i | -12.2%
COc1cc(/C=N/NC(=S)Nc2cccnc2)cc(OC)c1OC | -4.1% | 2.0%
CCCn1c(=N)c(C#N)cc2c(=O)n3ccccc3nc21 | -3.9% | 0.6%
CC(C)S(=O)(=O)N1CCCC(c2cc(C(=O)NCc3cccnc3)no2)C1 (stereo unspecified) | 10.8% | 0.8%
CC(=O)C(=Cc1cccc(C#N)c1)C(=O)c1ccccc1 | 10.2% | -11.3%
O=C(NC1CCS(=O)(=O)C1)c1cc(-c2ccccc2)nc2ccccc12 (stereo unspecified) | -3.5% | 2.1%
CO[C@]12CC(COC(=O)c3cncc(Br)c3)CN(C)[C@@H]1Cc1cn(C)c3cccc2c13 (stereo partly specified) | -16.3% | -4.3%
c1ccc2c(NC3=NCCCCS3)cccc2c1 | i | -12.7%
COc1ccccc1/C=C/C(=O)Nc1cccc(S(=O)(=O)N2CCOCC2)c1 | -3.8% | -22.1%
CCCCN(CCCC)CCNC(=O)c1cn(C)c2ccc(S(=O)(=O)N3CCOCC3)cc2c1=O | -18.3% | -5.9%

Four of the compounds above, with each value named.
Compound: CCN1c2ccccc2-c2nc(SCC(=O)Nc3cc(OC)cc(OC)c3)ncc2S1(=O)=O
  VACV mCherry inh = -12.2%
  Vaccinia Venus = -1.2%

Compound: O=C(COC(=O)CCC(=O)c1ccccc1)NNC(=O)c1ccc(Cl)cc1
  VACV mCherry inh = -4.6%
  Vaccinia Venus = -13.8%

Compound: CC1CCN(c2cc3c(cc2F)c(=O)c(S(=O)(=O)c2cccc(Cl)c2)cn3Cc2ccccc2)CC1
  VACV mCherry inh = i
  Vaccinia Venus = -9.6%

Compound: Cc1ccc(Cc2c(-c3ccc(Br)cc3)nc3cc(C)ccn23)cc1
  VACV mCherry inh = -12.9%
  Vaccinia Venus = -7.9%

(further entries)
SMILES | VACV mCherry inh | Vaccinia Venus
Cc1ccccc1C(c1ncccc1C)N(C)C(=O)C1CCN(CCOc2ccc(Cl)cc2Cl)CC1 (stereo unspecified) | -26.2% | ?
O=C(COC(=O)C1=COCCO1)Nc1c(F)cccc1F | -14.9% | 4.9%
C=CCn1c(=O)c(C(=O)NCc2ccc3c(c2)OCO3)c(O)c2ccccc21 | -12.4% | -9.2%
COc1ccc(NS(=O)(=O)c2cccc3ccccc23)cc1 | -13.2% | ?
Cc1ccccc1NC(=O)N1CCNC(=O)C1CC(=O)Nc1cc(Cl)ccc1Cl (stereo unspecified) | i | -16.3%
CCOC(=O)c1ccc(NC(=O)c2c(N)n(Cc3ccccc3)c(=O)[nH]c2=O)cc1 | -19.6% | ?
O=C(NC(c1ccccc1)c1ccsc1)C1CCN(Cc2ccc(Cl)c(Cl)c2)CC1 (stereo unspecified) | 14.7% | -9.5%
Cc1c(S(=O)(=O)N2CCN(C(=O)c3ccco3)CC2)c(=O)n(C)c(=O)n1C | -3.8% | -5.6%
Cc1sc2ncnc(NCC3COc4ccccc4O3)c2c1C (stereo unspecified) | -8.7% | -23.0%
Cc1ccc2[nH]cc(CCNC(=O)c3cccs3)c2c1 | -22.7% | -18.2%
COc1ccccc1NS(=O)(=O)c1ccc2nc(CCl)[nH]c2c1 | i | -10.4%
COc1ccccc1N1CCN(C(=O)CN2C(=O)c3cccc4cccc(c34)C2=O)CC1 | -16.0% | -2.2%
O=C(O)c1ccc(NS(=O)(=O)c2cccc3cccnc23)cc1 | i | -15.5%
CCC(CC)C(=O)Oc1c(Sc2ccccc2[N+](=O)[O-])c(C)nn1C(C)(C)C | -27.9% | -16.2%
CCn1c(SC(C)C(=O)Nc2ccc(C)cc2)nnc1-c1ccccc1 (stereo unspecified) | -27.6% | -19.0%
COc1ccc(-c2ccc(CN3C(C(C)C)C(=O)N(Cc4cn(CCC5OCCCO5)nn4)CCS3(=O)=O)cc2)cn1 (stereo unspecified) | -3.1% | -20.5%
CCC(C(=O)OCC(=O)N1CCN(S(=O)(=O)c2ccc(C)cc2C)CC1)c1ccccc1 (stereo unspecified) | -20.9% | -16.3%
CCCn1nc(Oc2nc(SC)nc(N(C)C)n2)ccc1=O | nt | 2.8%
CCOc1ccc(/C=C/C(=O)CCC(=O)O)cc1 | i | -3.9%
O=c1c2ccccc2nc(N2CCN(c3ccccc3)CC2)n1Cc1ccccc1 | -9.6% | -22.9%
CCOCCn1c(SCc2ccccc2)nc2c1c(=O)[nH]c(=O)n2C | 8.8% | -7.1%
COc1cc(OC)c(NS(=O)(=O)c2cc(C(=O)OCC(=O)NCC3CCCO3)ccc2OC)cc1Cl (stereo unspecified) | -2.5% | -5.2%
CC(C)CCn1cnc2c(c1=O)c1nc3ccccc3nc1n2Cc1ccc2c(c1)OCO2 | -1.0% | -3.6%
Cc1ccc(/C=N/NC(=O)C2(C)CC2(Br)Br)cc1 (stereo unspecified) | i | -1.3%
Cc1ccc(NNc2c(C)nc3ccccc3nc2=O)cc1 | ? | -16.9%
Brc1ccc(-c2ncc(-c3ccccc3)cn2)cc1 | nt | -6.3%
COc1cccc(-c2nc3nc(C)cc(C)n3c2NC2CCCC2)c1 | 8.2% | -5.4%
CC1(C(=O)Nc2ccc3c(c2)OCCO3)CC1(Cl)Cl (stereo unspecified) | i | 6.0%
O=C(c1cn(CCOc2ccc(Cl)cc2)c2ccccc12)C1CCCCC1 | 4.8% | 0.4%
